High-throughput results from PubChem.
miR-21 reporter = qHTS Assay for Modulators of miRNAs and/orActivators of miR-21; AID 2288, 2010; HeLa miR-21 FLuc reporter, luciferase, 48 h; Potency, µM (highest dose often 38.3 µM), for inactives: at the top dose reporter change, positive = more light; 340,000 tested, under 10 active; active = well fitted rising curve with a large enough effect; inconclusive = small, poorly fitted or top-dose-only effect; inactive = no such curve, though single readings can be large or run the other way;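 further: % of control where 0% means no effect; miR-21 action dims this reporter so a rising signal means less miR-21 action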
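HeLa miR-21-FLuc reporter line, endogenous miR-21; 2000 cells/well in DMEM/10% FBS; compound titration up to ~40uM final, 48 h, 37 degree Celsius; luciferase detection reagent, 15 min lysis, CCD luminescence.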
GLA inh pH 4.5 = qHTS Assay for Inhibitors of Human alpha-Galactosidase at pH 4.5. activity change, negative = inhibition, % at 105 µM. 230,000 tested, under 10 active. Alpha-galactosidase A (Homo sapiens), P06280. purified enzyme, 4-MU-alpha-Gal fluorescence, pH 4.5; inconclusive = small, poorly fitted or top-dose-only inhibition, or a rising curve; inactive = flat fitted curve, though single readings scatter; no compound was filed as active;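 further: 0% = full activity with enzyme and -100% = basal without enzyme; dose as in the result columns while the protocol names 77 µM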
Target sequence (P06280 whole entry, looked up): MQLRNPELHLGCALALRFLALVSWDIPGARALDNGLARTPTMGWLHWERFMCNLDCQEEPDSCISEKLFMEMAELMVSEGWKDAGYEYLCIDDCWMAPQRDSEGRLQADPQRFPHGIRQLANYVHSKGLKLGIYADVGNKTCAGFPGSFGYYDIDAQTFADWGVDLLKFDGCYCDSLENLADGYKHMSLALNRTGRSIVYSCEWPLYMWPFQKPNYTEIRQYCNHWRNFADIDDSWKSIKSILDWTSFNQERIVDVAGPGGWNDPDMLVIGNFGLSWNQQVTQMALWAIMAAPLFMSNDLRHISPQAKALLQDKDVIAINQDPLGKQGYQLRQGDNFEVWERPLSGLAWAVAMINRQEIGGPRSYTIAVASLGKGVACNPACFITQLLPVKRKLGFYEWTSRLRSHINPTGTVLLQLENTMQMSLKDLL
Rango-impB inh = qHTS Assay for Inhibitors of Rango (Ran-regulated importin-beta cargo) - Importin beta complex formation | AID 540263, 2011 | Rango CFP/YFP FRET sensor + importin beta, 45 min | Importin subunit beta-1 (Homo sapiens), Q14974 | Potency, µM (titrated, usually from 92.2 µM), for inactives: top-dose inhibition of complex formation | actives 0.031% (n = 340,000); active = rising FRET ratio curve, often small or poorly fitted; inconclusive = mostly compound fluorescence or quenching in the first reads; inactive = flat curves in all reads;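 further: potency means the concentration at half of the fitted maximal effect; 0% = DMSO wells and 100% = buffer wells lacking importin beta; nearly all actives have a fitted effect of over 15% in size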
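Inhibition scored from the CFP 486 nm/YFP 530 nm FRET ratio 45 min after adding 0.125 microM importin beta to 50 nM Rango biosensor preincubated 5 min with compound (room temperature, PBS with DTT, Tween-20, BSA). No-importin wells as positive control.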
Rango release inh = qHTS Assay for Inhibitors of RanGTP induced Rango (Ran-regulated importin-beta cargo) - Importin beta complex dissociation; actives 0.071% (n = 340,000); Biochemical FRET Rango-importin beta, RanGTP-induced dissociation; Snurportin-1 (Homo sapiens) + GTP-binding nuclear protein Ran (Homo sapiens) + Importin …; AID 540253, 2011; Potency, µM (top dose mostly 46.1 µM), without a hit: at the top dose activity change, negative = inhibition; active means falling FRET ratio curve, often poorly fitted, with flat reads before Ran was added; inconclusive means other falling curves, or compound fluorescence or quenching; inactive means flat or rising ratio curve;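 further: potency means the concentration at half of the fitted maximal effect; % of control where 0% means no effect; nearly all actives have a fitted effect of over 45% in size; -100% = wells without RanGTP and RCC1; the record marks most hits as doubtful in a second field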
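Rango/importin beta premix (0.1/0.25 uM final), PBS + 1 mM DTT + 0.02% Tween-20 + 0.1% BSA; cpd 5 min RT; FRET pre-read; + RanGTP-RCC1 (0.6 uM Ran, 2 mM GTP, 0.2 uM RCC1); 45 min RT; FRET post-read, ex 430, em 486/530 nm.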
* marks the source's active call; other numbers are inactive results; ? = inconclusive; . = no result given; & = joins results of further samples.

miR-21 reporter | Molecule | GLA inh pH 4.5 | Rango-impB inh | Rango release inh
-2% | Cc1ccc2c(c1)C1CN(C)CCC1N2C(=O)COc1ccc(N(C)S(=O)(=O)c2cccs2)cc1 (stereo not given) | -6 | -0.6% | -7%
-1% | CCOc1ccc(N(CC(=O)NC2CCCCC2)C(=O)CCC(=O)Nc2nccs2)cc1 | . | 3.8% | 4%
-51% | Cc1ccc(CSc2nnc(-c3ccco3)o2)cc1 | -1 | -1.1% | 2%
6% | Cc1cc(C(=O)Nc2ccc(N3CCCCC3)cc2)no1 | -3 | -0.6% | 0%
5% | COc1cccc(C2NC(=O)NC(C)=C2C(=O)Nc2ccccc2C)c1 (stereo not given) | 7 | . | .
3% | CCOC(=O)N1CCN(C(=O)Nc2sc3nc4n(c(=O)c3c2C)CCC(C)CC4)CC1 (stereo not given) | -9 | 3.0% | 12%
-41% | O=C(CSc1nnnn1-c1ccc(Cl)cc1)NC(=O)Nc1ccc2c(c1)OCCO2 | 2 | 4.2% | -9%
0% | COc1ccc(N2CCN(Cc3nc4c(c(=O)n(C)c(=O)n4C)n3CC(C)=O)CC2)cc1 | -2 | -1.1% | -6%
0% | COC(=O)C1C/C(=N/NS(=O)(=O)c2ccc(C)cc2)CS1 (stereo not given) | . | 1.6% | -6%
0% | O=C(CSc1nnc(CN2CCOCC2)n1-c1ccccc1)N1CCc2ccccc21 | -5 | 0.6% | -6%
-8% | O=C(/C=C/c1ccc(NC(=O)c2ccccc2-c2ccccc2C(=O)O)cc1)c1ccccc1 | . | ? | ?
-3% | Cc1ccc(S(=O)(=O)CCC(=O)Nc2ccc3nc(C)sc3c2)cc1 | 1 | 5.3% | -1%
. | Cc1ccc(NS(=O)(=O)c2ccc(NC(=O)c3ccc(-c4ccccc4)cc3)cc2)c(C)c1 | . | -1.2% | 0%
-11% | CN(C)S(=O)(=O)c1ccc(C(=O)Nc2nc(-c3cc4ccccc4o3)cs2)cc1 | -3 | 0.8% | 39%
21% | COCc1c(C#N)c(NCc2cc(OC)c(OC)c(OC)c2)nc(C)c1[N+](=O)[O-] | -5 | 1.1% | -5%
1% | O=C(CCS(=O)(=O)c1ccccc1)OCc1ccc([N+](=O)[O-])cc1 | . | 1.4% | 2%
. | Cc1cc(C)n(-c2ccc(C(=O)N3CCN(S(=O)(=O)c4cccc(Br)c4)CC3)cc2)n1 | . | 3.1% | 1%
-25% | CCOC(=O)CSc1[nH]c(=O)cc(C)c1C#N | 0 | -1.0% | 4%
. | COc1ccccc1[C@H]1C(c2cccc(Cl)c2)=NN(c2ccccc2)[C@@H]1CO | ? | ? | ?
-1% | CCn1c(N2CCN(S(=O)(=O)CC)CC2)nc2ccccc21 | 6 | 4.2% | 13%
. | CC(=O)Oc1ccc2c(c1)CCC1C2CCC2(C)C(OC(C)=O)CCC12 (stereo not given) | . | 3.7% | -9%
-13% | Cc1ccc(C(=O)N2CCc3ccccc3C2)cc1S(=O)(=O)N1CCOCC1 | . | -0.5% | -1%
-6% | CCC(CO)n1cnnc1-c1ccncc1 (stereo not given) | -6 | -6.6% | 1%
7% | CC(C)Cn1c(N)c(C(=O)COC(=O)c2cccc(Cl)c2)c(=O)n(C)c1=O | -3 | -3.5% | -4%
-13% | COc1ccc(/C=C2\SC(=S)N(CC3CCCO3)C2=O)cc1 (stereo not given) | -2 | 0.6% | -12%
0% | COc1ccccc1-c1nnc(C2CCN(S(=O)(=O)c3ccc([N+](=O)[O-])cc3)CC2)o1 | . | -0.3% | 22%
-66% | CCOC(=O)c1c(C)[nH]c(C(=O)OCCOc2ccccc2C)c1C | 0 | 0.0% | -5%
-3% | CC1=C(C#N)c2nc(N)c(C#N)c(C)c2/C1=C\c1ccc(OCC(=O)O)c(Cl)c1 | ? | ? | ?
. | COc1cc(-c2cc[n+](C)cc2)ccc1O | . | -0.8% | -5%
2% | Cc1cccc(NS(=O)(=O)c2c(C)[nH]c(C)c2C(=O)N2CCCC2)c1 | . | 1.3% | -12%
1% | COc1ccc(OCC(O)CN2CCOCC2)cc1 (stereo not given) | . | -4.6% | 5%
0% | Cc1ccc(NC(=O)c2ccc(C(C)(C)C)cc2)cc1-n1cnnn1 | -1 | 2.9% | 19%

2 entries from above, with each value named.
Cc1ccc2c(c1)C1CN(C)CCC1N2C(=O)COc1ccc(N(C)S(=O)(=O)c2cccs2)cc1 (stereo not given)
- miR-21 reporter: -2%
- GLA inh pH 4.5: -6
- Rango-impB inh: -0.6%
- Rango release inh: -7%

CCOc1ccc(N(CC(=O)NC2CCCCC2)C(=O)CCC(=O)Nc2nccs2)cc1
- miR-21 reporter: -1%
- GLA inh pH 4.5: .
- Rango-impB inh: 3.8%
- Rango release inh: 4%

Next structures follow.
miR-21 reporter | Molecule | GLA inh pH 4.5 | Rango-impB inh | Rango release inh
. | CC(C)(C)OC(=O)NCc1ccc(CNC(=O)c2nc[nH]c2C(=O)N2CCN(c3ccccc3)CC2)cc1 | . | -0.4% | 15%
0% | C/C=C/C(=O)Nc1cccc(C2=NOC3(C2)C[C@H](C(N)=O)N(C(=O)/C=C/C)C3)c1 (stereo not given in full) | 2 | 3.1% | -26%
-12% | COc1ccc(/C=C/c2cc(C(F)(F)F)[nH]c(=O)n2)cc1OC | 5 | ? | -21%
-27% | CCn1c(NCc2ccccn2)nc2ccccc21 | 1 | 2.5% | 3%
-8%&0% | COc1cc(NC(=O)Cn2c(C)cc3ccccc3c2=O)cc(OC)c1OC | 8 | 3.3% | 10%
-12% | CN1CCN(C(=O)c2cc3c(s2)-c2ccccc2S(=O)(=O)C3)CC1 | 6 | 1.5% | 1%
0% | O=c1c2ccccc2nc(/C=C/c2cccnc2)n1Cc1ccccc1 | 2 | -0.7% | 8%
? | COc1ccc([N+](=O)[O-])cc1NC(=S)NC(NC(=O)C(c1ccccc1)c1ccccc1)C(Cl)(Cl)Cl (stereo not given) | -9 | 3.1% | 6%
-37% | CCOC(=O)C1CCCN(C(=O)CCC(=O)Nc2ccc3nc(N4CCOCC4)cc(C)c3c2)C1 (stereo not given) | 1 | -0.6% | -3%
1% | Cc1ccc(C)c2nc3sc(C(=O)N4CCCc5ccccc54)c(N)c3cc12 | -2 | 6.4% | -15%
. | Cc1ccc(C(=O)OCC(=O)NCc2cccc(Cl)c2)cc1S(=O)(=O)N1CCCCC1 | . | 0.6% | -1%
. | CN(C)C(=O)c1ccc(NC(=O)COC(=O)C2CCN(S(=O)(=O)c3ccc4c(c3)OCCO4)CC2)cc1 | . | 4.2% | 7%
-3% | O=C(COc1ccccc1)N1CCN=C1SCc1cccc(F)c1 | -2 | 3.3% | 10%
-54% | CC1CC(C)CN(c2ncnc3c2cnn3-c2ccc(Cl)cc2)C1 (stereo not given) | -4 | -0.8% | 7%
0% | CCCc1nc2oc3cc(OC)ccc3c(=O)c2c(=O)n1Cc1ccco1 | -11 | ? | -28%
25% | O=C(Nc1nnc(C2COc3ccccc3O2)o1)c1ccc(F)cc1 (stereo not given) | -9 | 3.1% | 3%
-27% | Oc1ccc(Cl)cc1CNc1ccccn1 | . | -0.5% | 28%
. | COc1ccc2c(C)cc(SCC(=O)NC3CCCCC3)nc2c1 | . | 2.1% | 0%
-74% | Nc1c(-c2cccs2)cnc2c(-c3ccc(F)cc3)cnn12 | . | ? | -15%
0% | COc1ccc(Cl)cc1C(=O)NNC(=O)CN1C(=O)C2CC=CCC2C1=O (stereo not given) | -4 | -2.5% | -23%
. | NC(=O)c1ccc(SCC(=O)OCC(=O)NCc2cccs2)c([N+](=O)[O-])c1 | . | -2.6% | 0%
-3% | CCOC(=O)c1c(CN(CC)CC)oc2ccc(OC)cc12 | 2 | -3.0% | -7%
-1% | Cc1cc(C(=O)NNC2CC(=O)N(c3ccc4ccccc4c3)C2=O)c(C)o1 (stereo not given) | 8 | 0.6% | 10%
. | COc1ccc(NC(=O)CSc2ccc(NC(C)=O)cc2)cc1S(=O)(=O)N1CCOCC1 | . | ? | -23%
-9% | O=C(NCCc1ccccc1)c1ccc2c(c1)N(Cc1ccccc1)C(=O)CS2=O (stereo not given) | -2 | 5.3% | -2%
-12% | COc1cccc(/C=N/n2nnnc2N)c1O | -6 | ? | ?
0% | CC(=O)Nc1nc(SCC(=O)Nc2nnc(C)s2)[nH]c(=O)c1NC(=O)c1cccs1 | 4 | -0.6% | 22%
-1% | CC1(C)CC(=O)c2cc(C(=O)Nn3cnnc3)c(=O)n(-c3ccccc3)c2C1 | -10 | -4.9% | 9%
-21% | CCOC(=O)c1cc(-c2ccccc2)nn1CCC#N | -2 | -1.8% | 18%
-1% | COC(=O)Cn1c2ccc(Cl)cc2c2nc(C)sc21 | -3 | 0.7% | 0%
-3% | COc1ccc(-c2cc(C(F)(F)F)nc(N3CCOCC3)n2)cc1OC | 4 | -2.0% | 5%
3% | CCc1nnc(NS(=O)(=O)c2ccc(Nc3ccc4nonc4c3[N+](=O)[O-])cc2)s1 | 3 | 4.2% | -11%
. | O=C(CC(CC(=O)c1ccccc1)c1ccncc1)c1ccccc1 | . | -0.1% | 12%
. | Cc1c(Cl)cnc(NC(=O)COC(=O)/C=C/c2ccco2)c1Cl | . | ? | -9%
. | COc1cc(C(=O)N2CCN(S(=O)(=O)c3ccc(C)cc3)CC2)ccc1OCC(=O)N1CCOCC1 | . | 4.9% | 11%
-30% | COc1ccccc1CNC(=O)c1ccc(-c2ccccc2C(F)(F)F)o1 | 2 | 0.4% | -7%
0% | O=Cc1cn(CC(=O)N2CCCCCC2)c2ccccc12 | 1 | -4.3% | -1%
. | O=C(NCCC1=CCCCC1)c1cc(S(=O)(=O)N2CCOCC2)ccc1F | . | 3.0% | 4%
9% | CCN(Cc1ccccc1)C(=O)Cn1c(=O)n(CCC(=O)N2CCCCC2)c(=O)c2sccc21 | . | 0.9% | 21%
-1% | CN(CCCNC(=O)CCC(=O)N1CCOc2ccccc21)Cc1ccccc1 | . | -1.6% | 27%
-9% | O=c1nc(-c2ccccc2)c(-c2ccccc2)n[nH]1 | . | 0.1% | 0%
-14% | CC(=O)Nc1cc2ccccc2oc1=O | -29&-8 | -3.0% | 26%
-41% | CCn1cc(Br)c(-c2nc3ccccc3c(=O)n2N)n1 | 9 | -0.6% | 0%
. | O=C1c2ccccc2S(=O)(=O)c2cc(C(=O)N3CCC(O)CC3)ccc21 | . | -3.9% | -16%
7% | COc1ccc(-n2c(=S)[nH]c3cc(C(=O)NCc4ccccc4)ccc3c2=O)c(OC)c1 | . | -0.6% | 5%
-2% | CCOc1ccc(-c2nnn(CC(=O)NCc3ccc(OC)cc3)n2)cc1OCC | 7 | 1.0% | -6%
-38% | Cc1cc(=O)[nH]c(N/N=C/c2sccc2C)n1 | 10 | -0.1% | 0%
. | Cc1cc(=O)oc2cc(OCC(=O)Nc3c(C)n(C)n(-c4ccccc4)c3=O)c(Cl)cc12 | . | -4.7% | 8%
. | COc1cc(NC(=O)COc2ccc(-n3cnnn3)cc2)cc(OC)c1OC | . | 2.1% | 0%
-4% | Cc1cccc(C)c1NC(=S)Nc1c(C)n(C)n(-c2ccccc2)c1=O | 1 | ? | 0%
-15% | CCOC(=O)c1sc(SC)nc1N | -9 | 3.5% | -12%
-22% | COc1ccc(C2C(C(=O)c3ccccc3)=C(C)Nc3nc4ccccc4n32)c(OC)c1 (stereo not given) | 0 | ? | -9%

Gathered by group, those above containing a cyano group.
miR-21 reporter | Molecule | GLA inh pH 4.5 | Rango-impB inh | Rango release inh
21% | COCc1c(C#N)c(NCc2cc(OC)c(OC)c(OC)c2)nc(C)c1[N+](=O)[O-] | -5 | 1.1% | -5%
-25% | CCOC(=O)CSc1[nH]c(=O)cc(C)c1C#N | 0 | -1.0% | 4%
-3% | CC1=C(C#N)c2nc(N)c(C#N)c(C)c2/C1=C\c1ccc(OCC(=O)O)c(Cl)c1 | ? | ? | ?
-21% | CCOC(=O)c1cc(-c2ccccc2)nn1CCC#N | -2 | -1.8% | 18%

Some of the compounds tested, so the mix of outcomes need not match the whole.
